# Source: PubChem
# LANA-H2A inh: blockers of LANA interaction with H2A/H2B – biochemical, FP readout, HTS, primary screen | 320,000 tested, 0.6% active | AID 2629, 2010 | inhibition, % (no concentration beside the values) | cell-free LANA-H2A/H2B peptide, fluorescence polarization | Protein LANA1 (Human herpesvirus 8 type P (isolate GK18)), Q9QR71; in the data active means inhibition mostly above about 10%, no sharp cut-off; inactive means mostly below about 6.7%;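 further: stock transfer was 7.5 nL into about 10 µL; 0% = median of vehicle wells and 100% = median of positive control wells; one replicate is shown; the record names a cut of 25% in any replicate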
# RanGTP-Impb inh: inhibitors of RanGTP-importin-beta interaction, primary screen, biochemical, FRET, CFP-Ran, YFP-importin-beta, homogeneous; Ran GTPase (GTP-bound) - importin-beta complex; cell-free CFP-Ran/YFP-importin-beta FRET ratio; inhibition, % (concentration not given with the values); 300,000 tested, 1.1% active; AID 2216, 2009;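 active means most replicates above 15%; inconclusive means exactly half above 15%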;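 further: 0% = DMSO wells and 100% = Ran loaded with GDP instead of GTP; wells of about 40 µL received 100 nL stock; the first replicate is given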
# Bfl-1 A1 inh: caspase 3/7 activation in MEF A1-2A-BIM cells, primary screen, A1 inhibitor project, cell-based, luminescence, HTS; Caspase-Glo 3/7 luminescence, 3 h; percent of clofoctol response, vehicle zero; caspase activation, % (concentration not given with the values); 330,000 tested, 0.066% active; AID 2462, 2010;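 active means over half of replicate activation scores above 10%, or exactly half above 10 with the replicate mean above 10; inconclusive means replicate mean below 10 yet half the replicates above 10; inactive means over half of replicates below 10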;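 further: wells of about 30 µL received 50 nL stock; many hits fall short of the cut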
# MLL AF4-AF9 inh: inhibitors of AF4 peptide binding to AF9, primary screen, biochemical, AlphaScreen, biotin-AF4 peptide, FLAG-AF9, single point. Protein AF-9 (Homo sapiens), P42568. inhibition, % at 10 µM. 350,000 tested, 0.47% active;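 active means every replicate reaching a set inhibition limit, whatever the replicate mean, cut at about 25% in these data; inconclusive means mean inhibition reaches that limit but some replicates miss it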;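 further: 0% = plate neutral control median and 100% = total signal loss; the record names both 10 and 1 µM as test concentration; the first replicate is given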
# Target sequence (P42568 whole entry, looked up): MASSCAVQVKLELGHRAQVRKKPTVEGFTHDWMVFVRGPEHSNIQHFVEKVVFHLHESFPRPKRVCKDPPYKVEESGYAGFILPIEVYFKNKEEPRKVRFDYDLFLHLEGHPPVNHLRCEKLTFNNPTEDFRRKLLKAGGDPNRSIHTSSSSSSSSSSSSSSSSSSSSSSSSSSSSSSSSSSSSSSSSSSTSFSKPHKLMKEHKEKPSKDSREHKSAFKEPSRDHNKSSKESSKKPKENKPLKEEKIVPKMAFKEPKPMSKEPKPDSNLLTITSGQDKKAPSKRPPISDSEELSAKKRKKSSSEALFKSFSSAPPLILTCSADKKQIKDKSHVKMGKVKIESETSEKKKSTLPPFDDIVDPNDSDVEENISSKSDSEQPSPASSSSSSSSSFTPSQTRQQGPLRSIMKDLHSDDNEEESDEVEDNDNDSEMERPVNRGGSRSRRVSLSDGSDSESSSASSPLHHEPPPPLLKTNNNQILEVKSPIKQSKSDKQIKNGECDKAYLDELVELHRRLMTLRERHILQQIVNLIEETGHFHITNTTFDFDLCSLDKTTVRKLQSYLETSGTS
# T cruzi repl: inhibitors of intracellular T. cruzi growth, primary screen, luminescence, NIH3T3 host cells; T. cruzi beta-gal in NIH3T3, 90 h; inhibition, % (test concentration not listed); 300,000 tested, 1.4% active; AID 1885, 2009;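 active means mean inhibition across valid replicates above about 55%, limit read from the data; inconclusive means mean below that limit but half or more replicates reach it; inactive means mean below it, under half of replicates reach it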;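 further: signal also drops with host cell toxicity which is not excluded here; 0% = plate median of DMSO wells and 100% = zero luminescence signal; higher percent means less beta-gal luminescence so fewer parasites; stock transfer was 50 nL into about 50 µL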
# Vif TR-FRET: inhibitors of Vif binding to APOBEC3G peptide, primary screen, biochemical, TR-FRET, GST-Vif 1-94, biotin-A3G peptide, dose response retest (AID 1117319) | one-dose inhibition, %; IC50 in µM for titrated hits | TR-FRET GST-Vif / biotin-A3G peptide binding; higher % means a stronger effect; test concentration not given here; strong numbers were not always called active | 260,000 tested, 0.57% active | Virion infectivity factor (Human immunodeficiency virus type 1 group M subtype B (isolate …;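 active means above the screen mean plus three standard deviations and confirmed in dose response; inconclusive means results disagree or hit not tested in dose response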;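 further: Vif residues 1-94 fused to GST binding biotinylated APOBEC3G peptide 110-148; 0% = full assay without inhibitor and 100% = GST in place of GST-Vif; retest series ran down from 100 µM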
# Calb FLC: C. albicans growth inhibition with fluconazole, primary screen, CaCi-2 strain, Alamar Blue fluorescence. AID 1979, 2009. 300,000 tested, 0.57% active. growth inhibition, % (no concentration beside the values). C. albicans CaCi-2 (fluconazole-resistant clinical isolate) + fluconazole, 48 h;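 active means most replicates above 75%; inconclusive means exactly half above 75%; inactive means most below 75%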;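 further: all wells also contain fluconazole at 8 µg/ml as a sub-toxic cotreatment; 0% = median of DMSO wells and 100% = median of geldanamycin control wells; wells of about 8 µL received 7.5 nL stock; the first replicate is given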
# Beta cell apopt: inhibitors of cytokine-induced beta cell apoptosis, primary screen, luminescence. INS-1E cytokine-induced death, ATP luminescence, 48 h; percent of positive-control rescue, neutral wells zero. protection from apoptosis, % (test concentration not listed). 300,000 tested, 0.8% active. AID 435005, 2010;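 active means all replicates at 75% or more, or half of them and the mean; inconclusive means half reach 75% but not the mean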;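 further: 0% = cytokine-treated negative control wells and 100% = positive control rescue; higher means more ATP so stronger rescue from cytokine killing; wells of about 40 µL received 100 nL stock; the first replicate is given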
# * = called active by the depositor; ? = inconclusive; · = no result given; & = joins results of further samples.
SMILES,LANA-H2A inh,RanGTP-Impb inh,Bfl-1 A1 inh,MLL AF4-AF9 inh,T cruzi repl,Vif TR-FRET,Calb FLC,Beta cell apopt
O=C1N(Cc2cccc(Cl)c2)C[C@@H]2C[C@@H](c3cccn3-c3cccnc3)N3CCC[C@@]123,-3.5,0.6,0.1,10.6,28.1,4.1%,5.7,-6.3
CCOc1cc(C(=O)NC)cc(Br)c1OCc1ccccc1,0.2,4.5,-0.4,-3.5,0.4,28.9%,2.9,5.3
Cc1c(NS(=O)(=O)c2cc(C(=O)NCc3ccco3)cc(Cl)c2Cl)c(=O)n(-c2ccccc2)n1C,-0.3,?,0.7,-6.0,-1.9,11.1%,9.4,0.3
O=C(C1CCN(c2ccc(N3CCOCC3)nn2)CC1)N1CCc2ccccc2C1,-3.4,?,0.6,7.6,26.6,-0.5%,-26.8,-1.4
CN1CCN(c2cc3c(cc2F)c(=O)c(C(=O)O)cn3CCF)CC1,-4.8,-3.3,0.8,1.7,5.5,4.2%,1.2,-3.2
Fc1cccc(NC(=S)Nc2cccc3ccccc23)c1,1.1,6.2,0.0,1.3,-10.0,·,7.0,-2.1
COc1ccc(-c2nc(CSCC(=O)NCCCN3CCCC3=O)c(C)o2)cc1,-1.0,-0.6,0.4,-2.6,-3.2,2.5%,2.9,5.8
O=C(CCSc1ccccc1)Nc1ccc(S(=O)(=O)N2CCOCC2)cc1,1.8,0.0,1.9,·,-11.7,2.4%,2.1,-3.6
N/C(=N\OC(=O)N1c2ccccc2Sc2ccccc21)c1ccc(Br)cc1,5.3,-6.4,-0.4,4.8,40.4,5.0%,-1.6,8.1
O=C1c2ccccc2C(=O)N1c1nc(-c2cccs2)cs1,-7.5,-1.3,0.4,·,-11.7,6.2%,-2.1,-3.9
O=C(NCc1nnnn1-c1ccc(F)cc1)c1ccc([N+](=O)[O-])o1,4.6,-0.9,-1.1,-4.8,45.9,-2.4%,65.2,-29.9
O=C(CSc1nnc(CNC(=O)c2ccco2)o1)c1ccccc1,4.2,-2.1,0.5,·,4.5,8.2%,-0.4,-0.5
CCCS(=O)(=O)N1CCN(S(=O)(=O)c2ccccc2[N+](=O)[O-])CC1,0.5,0.2,-0.2,-7.6,-0.6,1.8%,19.0,-3.4
O=C(COc1ccc([N+](=O)[O-])cc1)NCCC1=CCCCC1,-1.7,-0.1,-0.4,·,3.3,·,-0.6,-7.2
CC(N)C12CC3CC(CC(O)(C3)C1)C2 (stereo not drawn),-3.4,-1.1,0.1,-7.2,-2.8,26.6%,-2.6,-1.8
Cc1cnc(NC(=O)Cc2ccc(C)c(C)c2)s1,-2.8,-0.6,0.2,0.3,-9.2,·,9.7,-3.0
CCN(CC)c1nc2cc(C)ccc2cc1/C=C(\C#N)C(N)=O,-5.7,-9.3,-0.6,7.9,5.2,-5.5%,30.4,-4.0
NC(=O)[C@H](Cc1cc2ccccc2s1)NC(=O)[C@@H]1CC2(CC(c3cccc(NC(=O)[C@@H]4CCC(=O)N4)c3)=NO2)CN1C(=O)/C=C/Sc1ccccc1 (stereo partly drawn),0.8,1.6,0.0,-0.6,-5.4,6.1%,21.8,-7.5
Cc1ccccc1Nc1ccc(S(=O)(=O)N2CCOCC2)cc1[N+](=O)[O-],-3.7,?,0.4,13.9,14.8,1.4%,3.8,11.4
Cc1nc2ccc(C(=O)O)cc2nc1C,-0.3,4.6,-0.9,·,-7.1,·,26.2,-0.7
CN(C)S(=O)(=O)c1cccc(NC(=O)CSc2nc3ccccc3n2-c2ccccc2)c1,-5.0,0.0,-0.5,·,11.7,·,7.2,13.2
CCCCCn1c(NC2CCCCC2)nc2c1c(=O)[nH]c(=O)n2C,-0.6,?,-0.2,-5.3,7.7,·,-5.8,-8.6
COc1ccc(-c2cc(C(F)(F)F)nc(SCC(=O)N(C)Cc3cnn(C)c3C)n2)cc1OC,-3.7,6.0,1.3,·,5.4,6.4%,-5.6,-3.6
COc1cc(-c2c(-c3cccc(C)c3)oc3ccccc23)cc(OC)c1OC,0.4,5.0,0.4,-3.8,36.8,·,-12.2,-6.4
CC(C)(C)c1cc(S(=O)(=O)CCc2ccncc2)cc(C(C)(C)C)c1F,-3.7,0.4,0.4,0.3,13.5,·,4.7,-6.0
COC(=O)c1ccc(C2/C(=C(/O)c3ccc(OC)cc3)C(=O)C(=O)N2c2cc(C)on2)cc1 (stereo not drawn),0.8,-0.7,0.1,·,-12.1,-10.2%,-21.4,-4.8
COc1ccc(CCNC(=O)/C=C/c2cc(OC)c(OC)c(OC)c2)cc1OC,-6.5,-0.2,-0.2,2.9,-2.0,-5.2%,7.4,-3.1
S=c1[nH]nc(-c2ccncc2)n1/N=C/c1cccc(Cl)c1,11.8,0.5,0.3,-0.8,-7.3,-8.4%,-2.2,-1.1
N#C/C(=C\c1ccc(N2CCOCC2)o1)c1ccccc1,1.7,-0.5,3.2,-43.1,-9.5,28.6%,-21.5,8.2
COCc1cc(CN(C)C(=O)C2CCC(=O)N(Cc3cccc(OC)c3)C2)[nH]n1 (stereo not drawn),6.2,6.4,-0.3,-1.4,-2.5,-7.5%,1.8,-8.7
Cc1ccc(C(=O)Nc2ccc3c4c(cccc24)CC3)cc1[N+](=O)[O-],4.4,0.2,-0.7,3.1,7.2,·,-2.6,9.1
Cc1cccc(OCCCSc2nc3ccccc3[nH]2)c1,-0.3,-0.5,-0.1,·,7.4,10.1%,36.1,0.4
Cc1c(OCc2ccccc2)c(=O)ccn1Cc1ccccc1,-0.1,-1.0,0.5,·,4.7,10.8%,-13.4,0.7
CCSc1nnc(NC(=O)CSc2nc3c(c(=O)n2CC)SC(C)C3)s1 (stereo not drawn),3.4,3.7,-0.4,·,-15.3,6.3%,3.0,8.2
Cc1ccc(Nc2nnc(SCC(=O)NCC3CCCO3)s2)cc1 (stereo not drawn),-1.3,·,-0.1,-5.3,·,·,·,-3.4
c1ccc(-c2ccc(SCc3cccnc3)nn2)nc1,-1.7,-2.6,-2.9,2.7,-6.5,-3.5%,-6.7,-1.3
COC(=O)c1ccc(Cl)c(NC(C)=O)c1,-5.8,6.4,0.5,·,-12.8,-0.2%,0.5,4.1
COc1cc(NS(=O)(=O)c2ccc(NC(=O)c3ccco3)cc2)nc(OC)n1,1.3,-0.9,-0.4,·,-6.2,1.7%&1.1%,-1.9,-0.5
COc1ccc(C(=O)Nc2nc(-c3ccc(OC)cc3)c(-c3ccc([N+](=O)[O-])cc3)s2)cc1,-0.4,0.6,-0.5,·,32.5,7.2%,-3.5,-2.5
Cc1[nH]n(-c2ccccc2)c(=O)c1Sc1ccc(Cl)cc1,-0.3,-4.2,-0.6,·,-8.5,0.2%,-2.5,-9.4
CC1(C)CC(=O)C=C(c2ccc3ncccc3c2)C1,-1.5,·,1.5,-3.5,·,·,·,4.6
Cc1ccc(S(=O)(=O)NC(CC(=O)O)c2ccccc2)cc1 (stereo not drawn),1.5,5.3,?,·,0.1,15.5%,-4.9,0.2
CCN(CC(=O)N1CCCC1)S(=O)(=O)c1ccccc1,-1.2,-16.0,1.0,-0.8,-9.5,7.6%,-3.4,·
O=C(CN(Cc1cccs1)C(=O)CNC(=O)c1ccco1)NC1CCCCC1,0.0,0.6,0.1,·,-4.1,-4.0%,1.2,1.0
COc1ccc(-c2sc(Nc3ccccc3)n[n+]2-c2ccccc2)cc1Br,0.8,·,-2.2,-5.7,·,·,·,2.5
Cc1ccc(N2C(=O)CCC2(C(N)=O)c2ccccc2)cc1 (stereo not drawn),-2.1,2.7,0.0,-0.6,-3.5,23.5%,-4.2,0.4
COc1cccc(C(=O)NC(C)c2cccc3ccccc23)c1OC (stereo not drawn),1.1,4.5,0.4,-2.8,17.6,·,-14.7,-3.9
CCC(=O)Nc1ccc(/C(C)=N\NS(=O)(=O)c2ccc(C)cc2)cc1,-1.8,2.0,0.3,·,-2.3,-2.2%,-1.1,-2.6
CC1CCCN(CCCN2C(=O)C3C(C(=O)Nc4cccc(Cl)c4)C4C=CC3(O4)C2C(=O)NC2CCCCC2)C1 (stereo not drawn),2.2,-1.5,1.7,-0.6,6.2,·,-2.5,-8.2
CCC1CCc2sc(C(=O)NCC3CCCO3)cc2C1 (stereo not drawn),-6.3,·,-1.8,1.4,·,2.8%,·,-4.5
O=C(O)CC1=C(Nc2ccccc2)C(=O)N(c2ccccc2)C1c1ccc(F)cc1 (stereo not drawn),1.8,-1.8,-1.4,0.9,5.0,20.0%,-7.5,1.0
COc1ccc(OC)c2sc(N(CCN(C)C)C(=O)c3cc(Cl)sc3Cl)nc12,2.9,4.0,0.1,21.4,-4.6,22.4%,-8.9,-1.0
Cc1ccc(Cn2nnc3c(=O)[nH]c(C4CCCN(C(=O)Nc5ccc(F)cc5)C4)nc32)cc1 (stereo not drawn),·,-1.2,·,·,-119.9,23.9%&-7.8%,26.5,·
COc1cc(OC)cc(C(=O)NCC(C)NC(=O)c2cc(OC)cc(OC)c2)c1 (stereo not drawn),-2.1,-0.4,0.6,0.6,3.4,·,-7.1,2.5
COc1cc(OC)c2c(-c3ccccc3)cc(=O)oc2c1C(CCN1CCCC(C)C1)c1ccc(N(C)C)cc1 (stereo not drawn),-4.0,6.3,0.0,67.0*,45.0,·,-21.5,16.0
Cn1c(CSc2nc3ccccc3s2)nc2ccccc21,0.1,?,-0.1,·,8.6,1.0%,-13.0,-8.3
Nc1nc(N2C(=O)C3CC=CCC3C2=O)nn1-c1ccccc1 (stereo not drawn),-0.5,2.0,1.1,·,-23.8,4.3%,-5.7,-7.6
Cc1cccc(N=C2SC(C)CN2C(=O)CN2C(=O)NC3(CCCC3)C2=O)c1 (stereo not drawn),-10.5,7.0,-0.2,-6.7,-16.6,1.6%,-4.7,-4.4
CCN1C(=O)c2ccccc2S(=O)c2ccc(C(=O)N3CCOCC3)cc21 (stereo not drawn),-3.3,0.8,1.3,-2.3,8.5,-3.3%,-8.9,-2.0
Cc1c(C)c2c(OCC(=O)N[C@@H](C(=O)O)c3ccccc3)cc3c(c2oc1=O)CCC(C)(C)O3,3.1,-5.0,-0.5,-19.8,-5.9,·,0.5,-3.8
Cc1ccc(NC(=O)C(=O)NCCCN2CCCC2=O)c(C)c1,17.5,-0.6,-0.5,1.7,-1.5,-2.0%,-5.0,-5.9
COc1ccc(C(=O)CSc2n[nH]c(-c3ccncc3)n2)cc1[N+](=O)[O-],-0.7,-1.0,0.3,·,0.1,-4.9%,-7.0,3.1
